FPR ligand – binds the human formylpeptide receptor FPR; P21462; FPR-expressing cells, fluorescent ligand binding, flow cytometry; inhibition, %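 (tested at 6.7 µM)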; hit rate 0.74% among 24,000;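 further: 0% = buffer wells and 100% = receptor blocker peptide wells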
VCAM-1 down imaging – inhibitors of TNFa-induced VCAM-1 surface display, imaging, high-content imaging, pooled HUVEC, TNFa stimulus (AID 456) | HUVEC TNFa-induced VCAM-1 surface expression, immunofluorescence imaging; numbers were filed only for top-ranked candidate wells | inhibition, % at 5 µM; hits with a dose series show IC50 in µM | hit rate 0.2% among 10,000;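 active means top tenth filtered wells with inhibition above zero that passed visual or statistical confirmation; inactive means the rest, including hits rejected on review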;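 further: 0% = stimulated vehicle wells and 100% = unstimulated cells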
VCAM-1 inhibition – suppression of endothelial VCAM-1 upregulation – cell-based, plate reader, pooled HUVEC, TNFa stimulus (AID 454). hit rate 0.2% among 10,000. inhibition, % at 5 µM. HUVEC TNFa-induced VCAM-1 surface immunofluorescence, plate reader; numbers were filed only for top-ranked candidate wells;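 active means compound among top-ranked inhibitors of TNF-induced VCAM-1 adhesion protein staining, with the hit upheld by image or statistical review; inactive means the rest, including hits rejected on review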;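 further: 0% = TNFa with vehicle and 100% = cells without TNFa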
FPRL1 binder – ligands of human FPRL1, also counter-screen for FPR ligands; AID 441; FPRL1-expressing cells, fluorescent ligand binding inhibition, flow cytometry; hit rate 0.3% among 24,000; P25090; inhibition, %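 (tested at 6.7 µM)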;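 further: 0% = buffer alone and 100% = receptor blocker peptide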
VCAM-1 up imaging – boosters of cytokine-driven VCAM-1 levels – imaging, high-content imaging, pooled HUVEC, TNFa stimulus (AID 457); Pooled HUVEC, TNFa-induced VCAM-1 immunofluorescence imaging; hits of this screen are not shown here; calls only; hit rate 0.2% among 10,000;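 active means a top-ranked rise in VCAM-1 staining upheld on image or statistical review; inactive means the rest, including candidates rejected on review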;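 further: compounds tested at 5 µM in the well; cells exposed to compound for 24 hours before fixing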
Active calls of the source: *; & = joins results of further samples.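 How the source made its calls, unless noted: active means mean above 30%; inconclusive means self-fluorescent; inactive means the rest.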 An excerpt (hit frequency here may not be typical).

Screening CC[C@@H]1C(=O)OC[C@@H]1Cc1cncn1C returned FPR ligand 3&4, VCAM-1 down imaging inactive, VCAM-1 inhibition inactive, FPRL1 binder 3&0 and VCAM-1 up imaging inactive.

From PubChem
